High-throughput results: PubChem BioAssay, several laboratories
Mtb growth – M. tuberculosis H37Rv growth inhibitors, H37Rv strain (AID 1626) | one-dose inhibition, % at 10 µM; IC50 in µM for titrated hits | actives 0.95% (n = 220,000) | M. tuberculosis H37Rv growth inhibition; higher % means a stronger effect;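 active = confirmed in a dose series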;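 also: bacteria incubated seven days before Alamar blue readout; 0% = bacteria only wells and 100% = bacteria with antibiotic wells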
Arbovirus anti – antivirals against arbovirus infection, primary screen, cell-based, full library, 10K replicate subset. arbovirus infection cell-based antiviral screen. inhibition, % at 10 µM. actives 0.37% (n = 200,000);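 active = inhibition from about 30%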;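 also: bluetongue infection of BSR cells; cell survival read as ATP light after 72 h; 0% = infected wells without compound and 100% = uninfected wells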
RecA intein inh – Mtb RecA intein splicing inhibitors, primary screen, biochemical, fluorescence, HTS | Protein RecA (Mycobacterium tuberculosis (strain ATCC 25618 / H37Rv)), P9WHJ3 | cell-free RecA intein splicing | inhibition, %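 (about 9 µM by stock and volumes)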 | actives 0.75% (n = 290,000) | AID 2221, 2009; in the data active = inhibition above about 30%;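 also: 0% = vehicle wells and 100% = reference inhibitor control wells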
Target sequence (P9WHJ3 whole entry, looked up): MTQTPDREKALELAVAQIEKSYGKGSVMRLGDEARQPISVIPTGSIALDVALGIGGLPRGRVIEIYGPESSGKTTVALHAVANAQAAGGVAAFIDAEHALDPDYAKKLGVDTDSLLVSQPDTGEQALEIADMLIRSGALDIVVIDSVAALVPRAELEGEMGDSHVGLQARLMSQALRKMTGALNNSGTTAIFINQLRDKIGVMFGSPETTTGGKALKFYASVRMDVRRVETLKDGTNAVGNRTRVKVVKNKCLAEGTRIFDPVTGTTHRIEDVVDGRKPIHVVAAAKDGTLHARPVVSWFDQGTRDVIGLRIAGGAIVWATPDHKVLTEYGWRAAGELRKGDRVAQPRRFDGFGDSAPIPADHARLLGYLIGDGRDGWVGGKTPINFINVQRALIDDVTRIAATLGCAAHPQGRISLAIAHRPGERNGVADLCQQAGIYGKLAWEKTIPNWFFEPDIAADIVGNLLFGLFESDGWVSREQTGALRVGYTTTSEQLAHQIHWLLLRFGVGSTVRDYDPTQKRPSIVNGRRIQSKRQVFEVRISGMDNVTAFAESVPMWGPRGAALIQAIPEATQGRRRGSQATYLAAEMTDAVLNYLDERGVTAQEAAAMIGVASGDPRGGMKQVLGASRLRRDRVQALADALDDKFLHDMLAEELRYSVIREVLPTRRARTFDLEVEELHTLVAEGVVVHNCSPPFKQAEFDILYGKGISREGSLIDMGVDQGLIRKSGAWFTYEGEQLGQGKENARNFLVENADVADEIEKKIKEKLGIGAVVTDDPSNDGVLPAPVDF
YopH inh – YopH tyrosine phosphatase inhibitors, primary screen, biochemical, fluorescence Ex485/Em525; YopH tyrosine phosphatase [Yersinia enterocolitica]; inhibition, %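 (about 10 µM by stock and volumes)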; actives 0.16% (n = 140,000); AID 898, 2007;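 active = inhibition of 50% or more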;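 also: controls were vehicle for no effect and minimum signal wells for full effect; inactives centre near -20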
Mtb betalactam – beta-lactam sensitization of Mtb H37Rv, H37Rv; M. tuberculosis H37Rv growth with meropenem, percent inhibition; hits of this screen are not shown here; inhibition, % at 25 µM; actives 0.27% (n = 330,000); AID 434955, 2010;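 active = about 74% or more and at least 40 points above the plate without the antibiotic, then above 30% in a dose series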;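 also: growth measured after seven days incubation then overnight dye step; 0% = bacteria only wells and 100% = bacteria with antibiotic; twin plates without the antibiotic show which effects depend on it; some results filed as inactive read as strong as hits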
Arbovirus anti repeat – also measured in Arbovirus anti; calls as there; inhibition, %; measured here: 10K subset replicate screen; many hits read low in the repeat;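 first of two repeat runs on a subset; 0% = infected and 100% = uninfected wells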
The depositor's hits bear a star; & = joins results of further samples. A portion of the library, so the mix of outcomes need not match the whole.

For COc1ccc(C2C(C)C3(O)CC(C#N)(C(=O)N3)C2(C#N)C#N)cc1 (stereo not given) the results were Mtb growth -9%, RecA intein inh -0.7 and Mtb betalactam 3.
`CC(=O)N(c1ccc(Cl)cc1)c1c[nH]c2ccccc12` gave Mtb growth -6%, Arbovirus anti -24, YopH inh -55 and Mtb betalactam 3.
`CCOc1cc(/C=N\Nc2ncc(F)c(N3CCOCC3)n2)ccc1Oc1nc(Cl)ncc1F` gave Mtb growth 8%, RecA intein inh 0.1 and Mtb betalactam 81.
`COc1ccccc1CCNC(=O)CCn1nc(C)c2c(C)n(-c3ccccc3)nc2c1=O` gave RecA intein inh 0.0 and Mtb betalactam -3.
`O=C(NC(=S)NCc1ccccc1)c1cccc([N+](=O)[O-])c1` gave RecA intein inh -1.0 and Mtb betalactam -7.
`COc1ccccc1CNC(=O)CCNC(=O)Cn1cnc2ccccc2c1=O` gave Mtb growth -13%, Arbovirus anti 4, RecA intein inh 0.9, YopH inh -22 and Mtb betalactam -5.
For C=CCn1c(SCC(=O)NC2CCS(=O)(=O)C2)nc2sc(CC)cc2c1=O (stereo not given) the results were Mtb growth 0%, Arbovirus anti 6, RecA intein inh 9.0, YopH inh -31 and Mtb betalactam -1.
`COc1cc(/C=N/n2c(C)nnc2C)cc(OC)c1OC` gave Mtb growth -1%, Arbovirus anti 1, RecA intein inh 1.0, YopH inh -2 and Mtb betalactam -11.
Screening COc1cccc(OC)c1C(=O)Nc1cccc(NC(=O)c2cccs2)c1 returned RecA intein inh 1.7 and Mtb betalactam -6.
O=S(=O)(Oc1ccccc1)c1cccnc1 was read as RecA intein inh -1.4 and Mtb betalactam 0.
For COc1cc(CC(=O)OCC(=O)N2CCCCC2)cc(OC)c1OC the results were RecA intein inh 0.2 and Mtb betalactam 1.
For Cc1ccccc1N=C1NC(=O)CS1 the results were Mtb growth -4%, Arbovirus anti 0, RecA intein inh -1.0, YopH inh -29 and Mtb betalactam -8.
For COc1ccccc1CCC(=O)Nc1ccc(S(=O)(=O)Nc2cc(C)nc(C)n2)cc1 the results were RecA intein inh 1.7 and Mtb betalactam -7.
For Cc1c(Cl)cnc(NC(=O)CSc2nnc(C)n2Cc2ccccc2)c1Cl the results were Mtb growth -8%, Arbovirus anti 8, YopH inh -18 and Mtb betalactam -11.
`COc1ccc(C(c2c(C)n(C)n(-c3ccccc3)c2=O)c2c(C)n(C)n(-c3ccccc3)c2=O)cc1O` gave Mtb growth -6%, Arbovirus anti -5, RecA intein inh -3.5 and Mtb betalactam -3.
Screening Cc1ccccc1C(=O)c1cccn1CC(=O)NCC(C)c1ccccc1 (stereo not given) returned RecA intein inh 2.8 and Mtb betalactam -1.
O=C(CCl)NN1C(=O)NC2(CCCCC2)C1=O was read as Mtb growth 3%, Arbovirus anti 6, RecA intein inh 0.4 and Mtb betalactam 0.
COC(=O)Oc1ccc(/C=C/C(=O)OC(C)C)cc1OC(=O)OC was read as Mtb growth 16%, Arbovirus anti -28, RecA intein inh 1.0, YopH inh -11 and Mtb betalactam 25.
c1ccc(-n2nnnc2N2CCOCC2)cc1 was read as Mtb growth 3%, Arbovirus anti -7, RecA intein inh 1.4, YopH inh -30 and Mtb betalactam -6.
COc1ccccc1CNC(=O)CNC(=O)N1CC(=O)Nc2ccccc21 was read as RecA intein inh 0.4 and Mtb betalactam 6.
`CC(C)CNC(=O)c1c(N)n(/N=C/c2ccccn2)c2nc3ccccc3nc12` gave Mtb growth -6%, Arbovirus anti 5, RecA intein inh -1.9, YopH inh 6 and Mtb betalactam 14.
`CC(C)c1nn2c(=O)cc(O)nc2s1` gave Mtb growth -2%, Arbovirus anti -12, RecA intein inh -1.1, YopH inh -49 and Mtb betalactam -1.
`CC(C)CN(C(=O)c1ccc(=O)n(C)n1)c1c(N)n(Cc2ccccc2)c(=O)[nH]c1=O` gave RecA intein inh -1.0 and Mtb betalactam 4.
Screening COCCNC(=O)C(c1ccccc1C)N(C(=O)Cn1nnc2ccccc21)c1cccnc1 (stereo not given) returned Mtb growth -9%, Arbovirus anti -3, RecA intein inh -0.9, YopH inh 3 and Mtb betalactam -9.
Screening CC1C(=O)Nc2ccc(S(=O)(=O)N3CCN(c4cccc(Cl)c4)CC3)cc2NC1=O (stereo not given) returned RecA intein inh -0.8 and Mtb betalactam 3.
For O=C(O)CC1c2ccccc2CCN1S(=O)(=O)c1ccccc1 (stereo not given) the results were RecA intein inh -0.7 and Mtb betalactam -3.
Screening COc1cccc(NC(=O)N(Cc2cc3cc(C)cc(C)c3[nH]c2=O)CC2COCCO2)c1 (stereo not given) returned Mtb growth 7%, Arbovirus anti -11, RecA intein inh -0.8, YopH inh -47 and Mtb betalactam 5.
`CCC(=O)Nc1c(C)cc(C)cc1Cl` gave Mtb growth -10%, Arbovirus anti -3, RecA intein inh 7.2, YopH inh 0, Mtb betalactam 22 and Arbovirus anti repeat -1.
`Cc1ccc(-c2nn(-c3ccccc3)cc2CO)o1` gave Mtb growth -6%, Arbovirus anti -1, RecA intein inh -2.4, YopH inh -4 and Mtb betalactam 73.
Screening COc1cc(OC)c(C2C(C#N)=C(N)OC3=C2C(=O)CC(C)(C)C3)cc1OC (stereo not given) returned Mtb growth 3%, Arbovirus anti 0, RecA intein inh -3.7, YopH inh 13 and Mtb betalactam 5.

A section from the list above, as a working copy:
Screening Cc1ccccc1C(=O)c1cccn1CC(=O)NCC(C)c1ccccc1 (stereo not given) returned RecA intein inh 2.8 and Mtb betalactam -1.
O=C(CCl)NN1C(=O)NC2(CCCCC2)C1=O was read as Mtb growth 3%, Arbovirus anti 6, RecA intein inh 0.4 and Mtb betalactam 0.

Next section:
O=C(NN1C(=O)C2C(C1=O)C1C=CC2C12CC2)c1ccccc1 (stereo not given) was read as Mtb growth 8%, Arbovirus anti 15, RecA intein inh 1.5 and Mtb betalactam 2.
For CC(C)(C)SC(=O)CC1NS(=O)(=O)OCC1NC(=O)OCC(Cl)(Cl)Cl (stereo not given) the results were RecA intein inh -1.3 and Mtb betalactam -10.
`Cn1c(-[n+]2c(-c3ccccc3)cc(-c3ccccc3)cc2-c2ccccc2)nc2cc([N+](=O)[O-])ccc21` gave Mtb growth 4%, Arbovirus anti 12, RecA intein inh 17, YopH inh -26 and Mtb betalactam 85.
For Cc1ccc(C(=O)c2c(NC(=O)c3ccccc3)sc(C)c2C)cc1 the results were Mtb growth 8%, Arbovirus anti -10, RecA intein inh 4.2, YopH inh -9 and Mtb betalactam 32.
`COc1ccccc1OCCNC(=O)c1ccc(C(C)(C)C)cc1` gave RecA intein inh 1.4 and Mtb betalactam -1.
CCC(C)NC(=O)CSc1ccc(NC(C)=O)cc1 (stereo not given) was read as Mtb growth 0%, Arbovirus anti 9, RecA intein inh -3.6, YopH inh -14 and Mtb betalactam 0.
CCC1(c2ccccc2)NC(=O)N(CC(=O)c2ccc3c(c2)OCO3)C1=O (stereo not given) was read as RecA intein inh 1.9 and Mtb betalactam -3.
Cc1cc(CN2CCOCC2)c(O)c(C2(C)CCCCC2)c1 was read as Mtb growth 3%, Arbovirus anti -26, RecA intein inh 12, YopH inh -14 and Mtb betalactam 7.
O=c1c2c([nH]c3ccccc13)CCCCCC2 was read as Mtb growth -10%, Arbovirus anti 0, RecA intein inh -4.5, YopH inh -26 and Mtb betalactam 3.
`COC(=O)C1=C(C)N(c2ccc(OC)c(OC)c2)C(=O)/C1=C\c1ccco1` gave Mtb growth 6%, Arbovirus anti 1, RecA intein inh -2.6 and Mtb betalactam -1.
Cc1ccc(NC(=O)NNC(=O)C2CC(c3cccnc3)=NO2)cc1 (stereo not given) was read as Mtb growth -1%, Arbovirus anti 7, RecA intein inh 1.9, YopH inh 9 and Mtb betalactam 27.
CCc1sc(NC(=O)C(C)C)nc1-c1ccccc1 was read as Mtb growth 4%, Arbovirus anti -1, RecA intein inh 3.4 and Mtb betalactam 1.
COc1ccc(NC(=O)N2CCN(c3cccc(C(F)(F)F)c3)CC2)cc1OC was read as Mtb growth 5%, Arbovirus anti -12, RecA intein inh -0.8, YopH inh 4 and Mtb betalactam 17.
Screening O=C(O)CCCNc1ccc(S(=O)(=O)N2CCCCC2)cc1 returned Mtb growth -18%, Arbovirus anti 2, RecA intein inh 2.4 and Mtb betalactam 0.
For Cc1nnc(NCc2ccncc2)c2ccccc12 the results were Mtb growth 24%, Arbovirus anti 1, RecA intein inh -1.9, YopH inh -37 and Mtb betalactam 33.

Molecules above containing two or more sulfur atoms (two):
For C=CCn1c(SCC(=O)NC2CCS(=O)(=O)C2)nc2sc(CC)cc2c1=O (stereo not given) the results were Mtb growth 0%, Arbovirus anti 6, RecA intein inh 9.0, YopH inh -31 and Mtb betalactam -1.
For CC(C)(C)SC(=O)CC1NS(=O)(=O)OCC1NC(=O)OCC(Cl)(Cl)Cl (stereo not given) the results were RecA intein inh -1.3 and Mtb betalactam -10.

The listing picks up; the seven compounds before the break are reprinted first.
O=c1c2c([nH]c3ccccc13)CCCCCC2 was read as Mtb growth -10%, Arbovirus anti 0, RecA intein inh -4.5, YopH inh -26 and Mtb betalactam 3.
`COC(=O)C1=C(C)N(c2ccc(OC)c(OC)c2)C(=O)/C1=C\c1ccco1` gave Mtb growth 6%, Arbovirus anti 1, RecA intein inh -2.6 and Mtb betalactam -1.
Cc1ccc(NC(=O)NNC(=O)C2CC(c3cccnc3)=NO2)cc1 (stereo not given) was read as Mtb growth -1%, Arbovirus anti 7, RecA intein inh 1.9, YopH inh 9 and Mtb betalactam 27.
CCc1sc(NC(=O)C(C)C)nc1-c1ccccc1 was read as Mtb growth 4%, Arbovirus anti -1, RecA intein inh 3.4 and Mtb betalactam 1.
COc1ccc(NC(=O)N2CCN(c3cccc(C(F)(F)F)c3)CC2)cc1OC was read as Mtb growth 5%, Arbovirus anti -12, RecA intein inh -0.8, YopH inh 4 and Mtb betalactam 17.
Screening O=C(O)CCCNc1ccc(S(=O)(=O)N2CCCCC2)cc1 returned Mtb growth -18%, Arbovirus anti 2, RecA intein inh 2.4 and Mtb betalactam 0.
For Cc1nnc(NCc2ccncc2)c2ccccc12 the results were Mtb growth 24%, Arbovirus anti 1, RecA intein inh -1.9, YopH inh -37 and Mtb betalactam 33.
For C/C(=N/NC(=O)c1ccc(Cl)s1)c1ccc(NC(=O)COc2ccc(Cl)cc2)cc1 the results were Mtb growth 10%, Arbovirus anti -17, RecA intein inh -0.1, YopH inh -34 and Mtb betalactam 75.
`CC(C)NC(=O)COCc1cc(-c2ccc3c(c2)OCO3)on1` gave RecA intein inh -0.7 and Mtb betalactam -1.
Screening Cc1ccc(-c2nn(CC(=O)NCc3ccccn3)c(=O)c3ccccc23)cc1S(=O)(=O)N(C)C returned Mtb growth -3%, Arbovirus anti 17, RecA intein inh 4.3 and Mtb betalactam -7.
`C=C(C)CNC(=S)N=Nc1c(O)[nH]c2ccc([N+](=O)[O-])cc12` gave Mtb growth 8%, Arbovirus anti 8, RecA intein inh 33* and Mtb betalactam -5.
CNc1ncc(C(=O)c2ccc(Cl)c(Cl)c2)s1 was read as Mtb growth 3%, Arbovirus anti -10, RecA intein inh 1.5, YopH inh -6 and Mtb betalactam 13.
For O=C(CCNS(=O)(=O)c1cccc2nonc12)NC1CCCCCC1 the results were Mtb growth 2%, Arbovirus anti -8, RecA intein inh 0.6 and Mtb betalactam 4.
For NS(=O)(=O)c1ccc(CCNC(=O)C(=O)c2c[nH]c3ccccc23)cc1 the results were Mtb growth 10%, Arbovirus anti 1, RecA intein inh -2.5, YopH inh -39 and Mtb betalactam 15.
`COCCn1c(SCC(=O)Nc2cc(OC)ccc2OC)nc2c(c1=O)SC(C)C2` (stereo not given) gave Mtb growth -14%, RecA intein inh 0.5 and Mtb betalactam -9.
For Cc1cc(NC(=O)CSc2nnc(C(C)N(C)C)n2-c2ccc(F)cc2)no1 (stereo not given) the results were Mtb growth -1%, Arbovirus anti 5, RecA intein inh -0.8 and Mtb betalactam -5.
For CC1CCN(CCCNC(=O)C2CCC(CNS(=O)(=O)c3cccc4nsnc34)CC2)CC1 (stereo not given) the results were RecA intein inh 1.7 and Mtb betalactam -3.
Screening CCSc1nnc(NC(=O)c2nc(-c3ccccc3)n(-c3ccccc3)n2)s1 returned Mtb growth 2%, Arbovirus anti 16, RecA intein inh 5.4, YopH inh -47 and Mtb betalactam 85.
CCC(COC(=O)c1cc(OC)c(OC)c(OC)c1)(c1ccccc1)N(C)C (stereo not given) was read as Mtb growth -3%&-13%, Arbovirus anti -1, RecA intein inh 1.9&0.2, YopH inh -53 and Mtb betalactam 5&-2&0.
Screening CCN(CC)C(=O)C1CCC(C)(C(=O)O)C1(C)C (stereo not given) returned Mtb growth -4%, Arbovirus anti -2, RecA intein inh -0.9, YopH inh -45 and Mtb betalactam -3.
